Screens as filed in PubChem BioAssay.
TRPML1 inh: human mucolipin-1 channel inhibition | Q9GZU1 | TRPML1-inducible cells, Ca2+ dye fluorescence, FDSS; active compounds read low; inhibition of EC80 agonist-evoked calcium signal | activity change, negative = inhibition, % (test concentration not listed) | 0.02% of 390,000 active | AID 624415; in the data active means activity change below about -50%; inconclusive means about -30% to -50%; inactive means above about -30%;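 note: stimulus is agonist 54-4 at its EC80 concentration; % is set by controls: 0 for no effect and ±100 for the full control effect; compound concentration not given in the record; the text of the record puts the active cut at -80%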
Target sequence (Q9GZU1 whole entry, looked up): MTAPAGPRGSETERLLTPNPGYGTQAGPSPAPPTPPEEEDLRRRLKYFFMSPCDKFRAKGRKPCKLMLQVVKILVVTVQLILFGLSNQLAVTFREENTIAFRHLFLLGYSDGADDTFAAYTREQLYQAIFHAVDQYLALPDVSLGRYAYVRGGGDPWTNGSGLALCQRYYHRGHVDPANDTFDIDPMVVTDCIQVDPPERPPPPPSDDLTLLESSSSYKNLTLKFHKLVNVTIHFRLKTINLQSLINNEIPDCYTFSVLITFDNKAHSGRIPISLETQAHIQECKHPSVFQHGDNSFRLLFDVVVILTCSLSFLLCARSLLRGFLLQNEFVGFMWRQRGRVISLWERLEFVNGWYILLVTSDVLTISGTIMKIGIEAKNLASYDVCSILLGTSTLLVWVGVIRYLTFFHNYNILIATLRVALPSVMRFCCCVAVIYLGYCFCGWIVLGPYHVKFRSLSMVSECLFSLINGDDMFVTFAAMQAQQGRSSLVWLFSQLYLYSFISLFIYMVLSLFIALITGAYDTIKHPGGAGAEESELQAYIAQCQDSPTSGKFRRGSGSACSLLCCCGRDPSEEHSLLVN
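Tet-induced TRPML1-DL cells loaded with Ca8 no-wash calcium dye were read kinetically on FDSS. Compound addition was followed by EC80 agonist 54-4 (4 uM final); inhibition was read over 110 s.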
ClpP mod: qHTS Assay for Activators of ClpP | purified B. subtilis ClpP, FRET peptide cleavage, 20 min | 1.9% of 340,000 active | Potency, µM (top dose mostly 57.5 µM), inactives show at the top dose activity change, negative = active; active = well fitted falling curve with a large enough effect; inconclusive = small, poorly fitted or top-dose-only effect; inactive = no such curve, though single readings can be large or run the other way; note: potency is the fitted concentration of half-maximal effect; the source files actives as falling curves though it sought activators and does not explain the sign; nearly all actives have a fitted effect of over 65% in size; many hits overshoot -100%
Target sequence (P80244 whole entry, looked up): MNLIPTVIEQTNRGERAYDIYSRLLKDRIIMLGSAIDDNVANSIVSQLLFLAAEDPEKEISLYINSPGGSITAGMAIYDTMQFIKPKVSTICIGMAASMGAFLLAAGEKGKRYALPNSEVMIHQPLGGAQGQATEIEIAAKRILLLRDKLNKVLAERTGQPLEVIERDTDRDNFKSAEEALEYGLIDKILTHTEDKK
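Purified B. subtilis ClpP, 10 microg/mL final in Tris/HCl pH8 with KCl, BSA, glycerol and Tween-20, cleaved an Abz/nitrotyrosine-quenched decapeptide. Fluorescence (ex 320, em 430) was read at 0 and 20 min at room temperature. Delta was normalized to 5.8 microM ADEP and DMSO/no-enzyme controls.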
* hit, by the source's call; ? = inconclusive.

Values run as follows: TRPML1 inh	ClpP mod
- O=C(NCCCN1CCN(c2cccc(Cl)c2)CC1)c1sc2ncccc2c1-n1cccc1
 : 38	-6.6%
- CCCSc1oc(-c2cccs2)nc1S(=O)(=O)c1ccc(Cl)cc1
 : -3	-29%
- COc1cc(NC(=O)CSc2nnc(C)n3c2cc2oc(C)cc23)cc(OC)c1
 : 6	-0.5%
- O=C(Cn1nnc2sc3c(c2c1=O)CCCC3)Nc1ccc(F)c(Cl)c1
 : -6	-1.7%
- COc1cc(NC(=O)c2cccc(Cl)c2Cl)ccc1NC(=O)c1cc2ccccc2o1
 : -17	-5.8%
- COc1ccc(NC(=O)C2(C)CCN2C(=O)c2ccccc2CCc2ccccc2)cc1OC (stereo not drawn)
 : 14	-0.6%
- Cn1cc(CCCC(=O)NCc2ccccc2Cl)c2ccccc21
 : 41	-17%
- CC1(C(=O)Nc2ccc3[nH]ncc3c2)CCN1C(=O)C1(c2ccccc2)CC1 (stereo not drawn)
 : 20	?
- Cc1ccccc1Nc1cc(C(=O)NC2CCCC2)c2ccccc2n1
 : 13	2.2%
- Nc1ncnc2c1ncn2[C@@H]1O[C@H](C(=O)N2CCCN(Cc3ccccc3F)CC2)[C@@H](O)[C@H]1O
 : -10	1.6%
- COc1ccc(-c2nnc(SCC(=O)NCc3ccc(C)cc3)nc2-c2ccc(OC)c(OC)c2)cc1OC
 : -15	-25%
- Cc1ccc(Cl)cc1N1CCN(C(=O)c2cc(S(=O)(=O)N3CCC(C)CC3)cn2C)CC1
 : 4	0.2%
- COCCCNC(=O)c1ccc(-n2c(-c3ccccc3)cc3c2CCCC3)cc1
 : -5	-14%
- Cc1ccc2c(c1)-c1c(c(C(=O)N3CCN(c4cc(Cl)ccc4C)CC3)nn1C)CS2
 : 1	-2.8%
- CC(C)Oc1ccc(CNC(=O)Cn2c(-c3cccs3)cc3ccccc32)cc1
 : 0	35µM*
- Cc1ccc(C)c(NC(=O)CSc2nc(-c3ccccc3)cc(=O)[nH]2)c1
 : 6	-5.6%
- CCOc1ccccc1N1CC(c2nc3ccccc3n2CCCOc2ccccc2OC)CC1=O (stereo not drawn)
 : -13	4.4%
- COc1ccc(NC(=O)CCc2nc3cccnc3n2-c2ccccc2)c(OC)c1
 : -9	-3.8%
- COc1ccccc1N1CCN(C(=O)c2ccc3c(c2)N(Cc2ccccc2)C(=O)c2ccccc2S3(=O)=O)CC1
 : -4	-1.5%
- Cc1nn(CC(=O)N2CCN(c3ccccc3F)CC2)c(=O)c2cccn12
 : -1	0.9%
- COc1cc(Cl)c(NC(=O)c2cc(CN3CCCC3)on2)c(OC)c1
 : -12	0.6%
- CC1CCN(C(=O)CSc2c3c(nc4cc(Cl)ccc24)CCCC3)CC1
 : -30	2.1%
- COc1cccc(-n2cc(C(=O)Nc3cc(C)c(Cl)cc3OC)c3ccccc3c2=O)c1
 : 8	?
- O=C(Nc1sc2c(c1C(=O)Nc1ccc(Cl)cc1)CCCC2)c1cccs1
 : 0	-0.5%
- CCN(CC)C(=O)c1sc2c(c1C)c(=O)n(Cc1ccccc1)c(=O)n2Cc1ccccc1C
 : 59	-3.0%
- CC(C)Nc1nc2c(-c3cccc(Br)c3)nnn2c2ccccc12
 : 9	3.9%
- O=C(NCc1cccc(Cl)c1)C1CCCN(c2ncnc3onc(-c4ccc(F)cc4)c23)C1 (stereo not drawn)
 : -13	-23%
- CCn1c(=O)c2cc(C(=O)Nc3cc(F)ccc3F)sc2c2ccccc21
 : 25	-2.9%
- Cc1nn(-c2ccc(F)cc2)c(-n2cccc2)c1C(=O)NCCc1ccc(Cl)cc1
 : 72	-19%
- O=C(NC(=O)c1ccccc1)Nc1ccc(-n2nc(C(F)(F)F)cc2C(F)(F)F)cc1
 : 1	-0.6%

(more compounds)
Values run as follows: TRPML1 inh	ClpP mod
- Clc1ccc(CCNc2nc3cc(Cl)c(Cl)cc3n3cnnc23)cc1
 : 6	-17%
- Cc1ccc(-c2cc(NC(=O)COc3c(C)cc(C)cc3C)on2)cc1
 : -13	-3.6%
- Cc1ccc(NC(=O)Cn2c(-c3nonc3N)nc3ccccc32)cc1C
 : -13	-7.2%
- CCOC(=O)C1(C)CCCN(C(=O)c2cccs2)C1 (stereo not drawn)
 : -4	-0.6%
- COc1cccc(Cc2nc3ccccc3nc2SCC(=O)NCCc2ccccc2)c1
 : -4	-3.2%
- O=C(CCCn1c(=O)c2cccn2c2cccnc21)NCc1ccc(F)cc1
 : 17	4.5%
- Cc1ccccc1NC(=O)CCNC(=O)Cn1ccc2ccccc2c1=O
 : -4	-2.4%
- CCN(Cc1ccccc1)C(=O)Cn1c(=O)n(-c2cccc(C)c2)c(=O)c2c1c1cc(OC)ccc1n2C
 : -12	3.9%
- CC(=O)N1CCC2(CC1)OC(=O)C(C)=C2C(=O)NCc1cccc(Cl)c1
 : -7	0.3%
- CC1CCCCN1CCCNC(=O)c1ccc2c(c1)sc1nc(-c3ccc(F)cc3)cn12 (stereo not drawn)
 : -24	-18%
- NC(=O)C1(N2CCCCC2)CCN(C(=O)Nc2ccc(F)cc2F)CC1
 : -6	0.7%
- Cc1ccc(NC(=O)C(Cc2ccccc2)n2cccc2)cc1C (stereo not drawn)
 : -20	-3.7%
- CCc1ccc(CNC(=O)CCSCc2ccccc2F)cc1
 : -2	-2.7%
- COc1cccc(N2CCN(C(=O)CCCCCn3c(=O)[nH]c4ccccc4c3=O)CC2)c1
 : 4	?
- COc1ccc(-c2noc(CC(=O)N(C)c3ccccc3F)n2)cc1
 : -7	0.9%
- COc1ccc(Cl)cc1NC(=O)CSc1ccc(-c2sc(C)nc2C)nn1
 : 5	2.7%
- Cc1cccc(-n2c(=O)c3c(c4cc(C)ccc4n3C)n(CC(=O)N3CCCC3)c2=O)c1
 : 4	3.7%
- COc1ccc(NC(=O)c2ccc(-c3nc(COc4ccccc4)c(C)o3)cc2)cc1
 : 5	-0.1%
- CCc1nc(SC)ncc1C(=O)N1CCN(c2cc(Cl)ccc2C)CC1
 : 21	-2.9%
- CCn1c2c(c(=O)n3ncc(C(=O)Nc4ccc(Cl)cc4C)c13)CN(Cc1ccc(OC)cc1)CC2
 : -12	?
- O=C(NCc1ccc(F)cc1Cl)c1ccc(CSCc2ccccc2Cl)o1
 : 48	-3.3%
- COc1ccc(C(=O)NCC(c2ccco2)S(=O)(=O)c2ccc(F)cc2)cc1 (stereo not drawn)
 : 0	-1.9%
- CCOC(=O)c1ccc(NC(=O)N2CC3CCCN3c3ccccc32)cc1 (stereo not drawn)
 : 27	-11%
- COc1ccc(N2CCN(c3nc4ccc(C(=O)c5ccccc5)cc4n4cnnc34)CC2)cc1
 : -6	-1.3%
- O=C(Cn1cnc2c(nc3n2CCCCC3)c1=O)Nc1ccc(F)cc1
 : 25	0.7%
- CCOC(=O)C1CCC(CN(Cc2c(Cl)cccc2Cl)S(=O)(=O)c2ccc(F)cc2)CC1 (stereo not drawn)
 : 46	-1.9%
- Clc1ccc(-c2cccc3nccn23)cc1
 : 9	4.0%
- CCCc1nnc(NC(=O)c2cc(=O)c3cc(C)c(C)cc3o2)s1
 : 5	1.6%
- COc1ccc(NC(=O)C(=O)NCc2ccco2)cc1
 : -13	1.3%
- CC1CCN(S(=O)(=O)c2nnc(NC(=O)c3cccc(Br)c3)s2)CC1
 : 5	-9.4%

Next entries:
Values run as follows: TRPML1 inh	ClpP mod
- Cn1c(=O)c2nc(SCC(=O)Nc3ccc(OC(F)(F)F)cc3)n(C)c2n(C)c1=O
 : -1	1.0%
- CCc1ccc(NC(=O)N2CCN(Cc3cc(=O)n4nc(-c5ccccc5OC)sc4n3)CC2)cc1
 : 45	-4.8%
- COc1ccc(-c2csc(-c3c(N)c(C(=O)c4ccccc4)n4ccccc34)n2)cc1
 : -22	-1.0%
- Cc1ccccc1NC(=O)CN1C(=O)C2(SCC(=O)N2c2ccc(F)cc2)c2ccccc21 (stereo not drawn)
 : -4	0.8%
- Cc1ccc(NC(=O)Cn2cc(S(=O)(=O)N3CCCC3)c(S(=O)(=O)N3CCCC3)c2)cc1F
 : 33	-0.2%
- COc1ccc(NC(=O)C2=C(C)Nc3ncnn3C2c2cccn2C)cc1 (stereo not drawn)
 : 28	2.0%
- Cc1cc(C)cc(NC(=O)CSc2nc3c([nH]c4ccccc43)c(=O)n2-c2ccc(F)cc2)c1
 : -3	3.8%
- CCOC(=O)c1c(NC(=O)/C=C/c2ccc(OCC)c(OC)c2)sc2c1CCC2
 : 13	0.0%
- COCC(=O)n1nc(-c2ccco2)nc1NCc1ccccc1Cl
 : -13	-5.1%
- Cc1nc(-n2nc(C)c(CCC(C)C)c2C)sc1C(=O)Nc1cccc(Cl)c1C
 : -4	-12%
- OC(c1cccc(Cl)c1)c1ncc(-c2cccc3ccccc23)[nH]1 (stereo not drawn)
 : 6	4.2%
- CCOc1ccc(S(=O)(=O)Nc2ccc(-c3ccc(OC)nn3)cc2)cc1
 : -27	-0.1%
- Cc1ccc(N2C(=O)[C@@H]3CSC(c4ccc(F)cc4)N3C2=O)cc1 (stereo partly drawn)
 : 19	-3.5%
- Cc1ccc(CNC(=O)CSc2c(C)cnc3c2c(=O)n(C)c(=O)n3C)cc1
 : -8	0.0%
- CCOc1ccccc1NC(=O)CSc1nnc(CC)c(CC)n1
 : 55	0.9%
- COc1ccc(CNC(=O)CCCn2c(SCC(N)=O)nc3cc4c(cc3c2=O)OCO4)cc1
 : -8	-3.0%
- Cc1ccc(Cl)cc1Nc1nc2ccccc2n2c(C)nnc12
 : -11	-2.9%
- CC(=O)N1CCOc2cc(S(=O)(=O)NCc3ccc(C)cc3)c(C)cc21
 : -3	-0.1%
- Cc1c(C(=O)OCC2CCCCC2)[nH]c2c1C(=O)CC(c1ccc(F)cc1)C2 (stereo not drawn)
 : -27	1.3%
- COc1ccc(NC(=O)CCS(=O)(=O)c2cc3c4c(c2)CCN4C(=O)CC3)cc1OC
 : -10	-2.1%
- CCCSc1ncc(Cl)c(C(=O)Nc2c(C(=O)Nc3ccc(OC)cc3)oc3ccccc23)n1
 : 25	0.4%
- Cc1cccc(Nc2nc(-c3ccccc3)c3cc(C)ccc3n2)c1
 : 57	-2.1%
- CCOc1ccc(NC(=O)c2sc(-n3nc(C)c(Cc4ccc(Cl)cc4)c3C)nc2C)cc1
 : -13	-2.6%
- COc1ccc(CCNC(=O)c2cnc3sc(N4CCCCCC4)nn3c2=O)cc1OC
 : 0	?
- NC(=O)Cn1c(=O)n(-c2ccc(F)c(Cl)c2)c(=O)c2sc3ccccc3c21
 : -8	4.2%
- CCn1cc(C(=O)N2CCN(c3cccc(Cl)c3)CC2)c(=O)c2cc(S(=O)(=O)N3CCOCC3)ccc21
 : -16	-2.4%
- COc1cc(C)ccc1OCCn1c(-c2ccc(Cl)cc2)nc2ccccc2c1=O
 : 1	0.3%
- CCCN1CCCc2cc(CN(CCCN3CCOCC3)C(=O)Nc3ccc(Cl)c(Cl)c3)ccc21
 : 40	-5.9%
- CCc1ccc(CNC(=O)c2cnc3sc(N4CCCCCC4)nn3c2=O)cc1
 : 18	-9.4%
- O=C(NCc1cc(Cl)cc(Cl)c1)c1ccc2nc([C@@H]3O[C@H](CO)[C@H](O)[C@H](O)[C@H]3O)[nH]c2c1
 : 13	4.1%

Compounds above that have an NH in an aromatic ring (7):
Values run as follows: TRPML1 inh	ClpP mod
- CC1(C(=O)Nc2ccc3[nH]ncc3c2)CCN1C(=O)C1(c2ccccc2)CC1 (stereo not drawn)
 : 20	?
- Cc1ccc(C)c(NC(=O)CSc2nc(-c3ccccc3)cc(=O)[nH]2)c1
 : 6	-5.6%
- COc1cccc(N2CCN(C(=O)CCCCCn3c(=O)[nH]c4ccccc4c3=O)CC2)c1
 : 4	?
- Cc1cc(C)cc(NC(=O)CSc2nc3c([nH]c4ccccc43)c(=O)n2-c2ccc(F)cc2)c1
 : -3	3.8%
- OC(c1cccc(Cl)c1)c1ncc(-c2cccc3ccccc23)[nH]1 (stereo not drawn)
 : 6	4.2%
- Cc1c(C(=O)OCC2CCCCC2)[nH]c2c1C(=O)CC(c1ccc(F)cc1)C2 (stereo not drawn)
 : -27	1.3%
- O=C(NCc1cc(Cl)cc(Cl)c1)c1ccc2nc([C@@H]3O[C@H](CO)[C@H](O)[C@H](O)[C@H]3O)[nH]c2c1
 : 13	4.1%

New compounds follow:
Values run as follows: TRPML1 inh	ClpP mod
- O=C(CSc1cn(CCNC(=O)c2ccccc2F)c2ccccc12)Nc1ccc(F)cc1
 : 10	-1.7%
- COc1ccc(NC(=O)N2C[C@H]3CON(C)[C@H]3C[C@H]2c2ccc(N3CCCCC3)cc2)cc1
 : 23	-3.0%
- COc1ccc(C(=O)N2CCC(c3nc(-c4ccc(S(=O)(=O)N5CCCC5)cc4)no3)CC2)cc1
 : 9	0.0%
- COc1ccc(N2CCN(C(=O)CN3CCSc4ccccc43)CC2)cc1
 : 0	-2.6%
- O=C(Nc1ccc2nc3n(c(=O)c2c1)CCCCC3)c1cccc(C(F)(F)F)c1
 : 6	1.8%
- O=C(CSc1nc2nccnc2c(=O)n1CCc1c[nH]c2ccccc12)Nc1ccccc1
 : -8	-5.9%
- CCn1cc2nc(SCc3cccc(C)c3)n(CCc3ccccc3)c(=O)c2n1
 : 1	-2.9%
- Cc1noc(C)c1S(=O)(=O)N(CC(=O)NCc1ccccc1Cl)c1ccc(C(C)C)cc1
 : 25	1.0%
- CC(C)CC(=O)Nc1ccc(S(=O)(=O)Nc2cc3c(cc2N2CCOCC2)n(C)c(=O)c(=O)n3C)cc1
 : -7	-22%

A portion of the library; rates above refer to the full screens.
